VACV Venus inh = inhibitors of vaccinia virus (Venus reporter); Potency, µM (doses to about 36.5 µM), inactives show top-dose activity change, negative = inhibition, usual class: inhibitors; Vaccinia virus Venus reporter expression, fluorescence; hit rate 0.46% among 330,000; active means well fitted inhibition curve with a large enough effect; inconclusive means small, poorly fitted or top-dose-only effect; inactive means no such curve, though single readings can be large or run the other way; tested in A549 cells; also: nearly all actives have a fitted effect of over 30% in size; inactives centre near -10
VACV mCherry inh = vaccinia inhibition (mCherry reporter) | AID 720579 | Vaccinia virus mCherry reporter infection, fluorescence; about a quarter of the inactives have no number | hit rate 0.63% among 310,000 | Potency, µM (top dose mostly 36.5 µM), for the others: at the highest dose activity change, negative = inhibition, usual class: inhibitors; active = well fitted inhibition curve with a large enough effect; inconclusive = small, poorly fitted or top-dose-only effect; inactive = no such curve, though single readings can be large or run the other way; tested in A549 cells; also: nearly all actives have a fitted effect of over 35% in size; inactives centre near -10
* hit, by the source's call; i = inactive; u = inconclusive; x = not tested or not shown; & = joins results of further samples; [ ] = dose if it differs, or a comment. % is scaled to controls: 0 for no effect and ±100 for the full control effect; potency is read from the fitted curve at half-maximal effect.

structure	VACV Venus inh	VACV mCherry inh
CCC(=O)NC(c1ccc(OC)cc1)c1c(O)ccc2ccccc12 (stereo not given)	-23%	-14%
O=C(/C=C/c1ccco1)NC(=S)Nc1cc(-c2nc3ccccc3s2)ccc1Cl	-29%	i
CC(C(=O)O)C(=O)O	-10%	i
C[C@@]12CCC=C[C@H]1[C@H](c1ccc(C(F)(F)F)cc1)N(Cc1ccccc1)C2=O	-14%	-5%
CC1CCCCN1S(=O)(=O)c1ccc(C(=O)N(CCCN(C)C)c2nc3ccc(Br)cc3s2)cc1 (stereo not given)	u	-18%
OCCN(CC#CC(O)(c1ccccc1)c1ccccc1)CCO	-10%	-18%
COc1ccc(NC(=O)CCCN2C(=O)CCn3nc(-c4cn(C)c5ccccc45)cc32)cc1	-4%	-19%
Cc1nc2c(c(C)c1CCC(=O)NCc1ccccc1)c(=O)n(C)c(=O)n2C	8%	7%
Cc1c(NC(=O)C(=O)/C=C(/O)c2ccccc2)c(=O)n(-c2ccccc2)n1C	-9%	-12%
Cc1nc(NCc2ccco2)c(C#N)c2c1COC(C)(C)C2	15%	4%
CN1CCN(S(=O)(=O)c2ccc(N(C)Cc3ccc(C(F)(F)F)cc3)c([N+](=O)[O-])c2)CC1	u	-23%
Cc1cc2cc(CN(Cc3cccs3)Cc3nnnn3CC3CCCO3)c(=O)[nH]c2cc1C (stereo not given)	-13%	-24%
CCC(CC)C(=O)Nc1c2cnn(-c3ccccc3)c2nc(=O)n1-c1ccccc1	-11%	-12%
COc1ccccc1NC(=O)Cn1c(SCC(=O)N(C)c2ccccc2)nc2ccccc21	-11%	i
COc1cc(OC)c(/C=C/c2c3ccccc3cc[n+]2C)c(OC)c1	u	u

Full records, looked up by structure:
O=C(/C=C/c1ccco1)NC(=S)Nc1cc(-c2nc3ccccc3s2)ccc1Cl reads VACV Venus inh: -29%; VACV mCherry inh: i
C[C@@]12CCC=C[C@H]1[C@H](c1ccc(C(F)(F)F)cc1)N(Cc1ccccc1)C2=O reads VACV Venus inh: -14%; VACV mCherry inh: -5%

(continued)
structure	VACV Venus inh	VACV mCherry inh
CC(=O)c1cccc(NC(=O)C2(c3ccccc3)CC2(Cl)Cl)c1 (stereo not given)	5%	i
Cc1cc2c(SCC(=O)NC3CCCC3)ncnc2s1	0%	53%[activator]
CC(=O)c1cccc(NC(=O)Nc2csc3c2CCCC3)c1	-7%	0%
O=C(c1ccc(CSc2nc3ccncc3n2Cc2cccc(F)c2)cc1)N1CCCCCC1	-27%	-23%
CCn1c2ccccc2c2cc(CN3CCN(Cc4cc(OC)ccc4O)CC3)ccc21	-24%	-26%
COc1cc(=O)n2c(c1C(=O)N(C)Cc1cscn1)CCN(C(=O)c1ccc(C)cc1C)CC2	-8%	0%
O=C(Nc1ccccn1)c1onc2c1CCCC2	-14%	i
COc1cc(OC)c(NC(=O)Cn2c(=O)c(C(F)(F)F)nc3ccccc32)cc1Cl	-9%	-5%
CCCCCC(=O)Nc1ccc(S(=O)(=O)Nc2ccc(Cl)nn2)cc1	-21%	-3%
NC(=O)CC(NC(=O)c1ccccc1)c1ccc(NCc2ccc(F)cc2)c([N+](=O)[O-])c1 (stereo not given)	-17%	u
Clc1ccc(-c2cc3ccccc3nc2N2CCCC2)cc1	-1%	x
CCc1ccc(NC(=O)Cn2c(=O)c(-c3ccccc3NC(C)=O)nc3ccccc32)cc1	-19%	-20%
CCOC(=O)c1sc(-c2ccccc2)cc1NC(=O)c1ccc(S(=O)(=O)N(CCOC)CCOC)cc1	2%	i
C=CCn1c(SCC(=O)NC2CCCC2)nnc1-c1ccncc1	-9%	i
CCCCN(C)C(=O)CCCCn1c(=O)[nH]c2cc(OCC)c(OCC)cc2c1=O	-28%	u

Reprinted from the part before: 3 compounds; new compounds follow.
structure	VACV Venus inh	VACV mCherry inh
CCOC(=O)c1sc(-c2ccccc2)cc1NC(=O)c1ccc(S(=O)(=O)N(CCOC)CCOC)cc1	2%	i
C=CCn1c(SCC(=O)NC2CCCC2)nnc1-c1ccncc1	-9%	i
CCCCN(C)C(=O)CCCCn1c(=O)[nH]c2cc(OCC)c(OCC)cc2c1=O	-28%	u
COc1ccc(Br)cc1C(=O)Nc1nc2ccc(F)cc2s1	1%	10%
Cc1ccccc1NC1=C(C(=O)c2ccccc2)N(C)S(=O)(=O)c2ccccc21	-13%	-16%
CCOC(=O)c1cccc(NC(=O)CC(c2ccc(F)cc2)N2Cc3ccccc3C2=O)c1 (stereo not given)	-18%	-22%
Cc1ccc(NC(=O)c2nc(S(C)(=O)=O)ncc2N(Cc2ccco2)Cc2ccccc2F)c(C)c1	-5%	-9%
CCn1cc(C(=O)NCCCN(CC(C)C)CC(C)C)c(=O)c2cc(S(=O)(=O)N3CCc4ccccc4C3)ccc21	-5%	-12%
CC(C)(C)CC(C)(C)NCC(O)COc1ccc2c(c1)CCC2 (stereo not given)	u	u
Cc1cccc(C)c1NC(=O)C1CCCN1S(=O)(=O)c1ccccc1 (stereo not given)	0%&4%	2%
CCCOc1ccc(CNC(=O)C(C)n2nc(C)n3c(cc4occc43)c2=O)cc1 (stereo not given)	-13%	-9%
Nn1c(Cc2ccccc2)nc2ccccc2c1=O	-11%	-3%
O=C(O)CN(CC(=O)O)CC(=O)O	-10%	i
CCCCC(=O)NCCNC(=O)c1cc(OCC(F)(F)F)ccc1OCC(F)(F)F	-10%	x
CCCCC/C=C/C1=CC(=O)C[C@H](c2ccc(OC)cc2)C1	-20%	-17%
COC(=O)C1=C(c2cccc(OCc3ccccc3)c2)C[C@@H]2CC[C@H]1N2C(=O)NCCc1ccc(F)cc1	u	u
Cc1ccc(NC(=O)c2ccc3c(c2)CCN3S(C)(=O)=O)cc1	-24%	i
Cc1cc(OC(C)C(=O)N(Cc2ccco2)Cc2ccccc2F)cc(C)c1Cl (stereo not given)	-4%	4%
O=C(Nc1c(C(=O)N2CCN(c3ccccc3F)CC2)oc2ccccc12)c1ccc(Br)o1	-7%	-11%
COc1cc2cc(CN(CCN3CCCC3)C(=O)Nc3ccccc3Cl)c(=O)[nH]c2cc1OC	-9%	-9%
Cc1nn(CCOc2ccccc2)c(=O)n1-c1ccc(F)cc1	-7%	-10%
COc1ccc(-c2ccc(CN3C(CC(C)C)C(=O)N(Cc4cn(CCC5OCCO5)nn4)CCS3(=O)=O)cc2)cc1OC (stereo not given)	-13%	0%
COc1ccc(NC(=O)N2CCCC(C(=O)Nc3cccc(C)c3C)C2)cc1 (stereo not given)	5%	-6%
COCc1c(C(=O)NC2CCCCCC2)cnn1-c1nccc(-c2cc(C)sc2C)n1	-6%	-12%
O=C(CCl)NN1C(=O)NC(c2ccccc2)(c2ccccc2)C1=O	u	u
CCn1cc(CCC(=O)NCCN2CCOCC2)c2ccccc21	-4%	-10%
COc1ccc(C(=O)CN2C(=O)c3ccccc3S2(=O)=O)cc1	-14%	-2%
Cc1ccc(C)c(OC(=O)CSc2nnc(-c3cccs3)o2)c1	-6%	-2%
CCCC1C(=O)N2C(N(C)C)=Nc3ccc(C)cc3N2C1=O (stereo not given)	-9%	-1%
COCCCN(C(=O)Cc1coc2cc(C)c(C)cc12)c1c(N)n(Cc2ccccc2)c(=O)[nH]c1=O	0%	i
Cc1cc(C(=O)N/N=C/c2cc(Br)c(Br)o2)n[nH]1	14%	-11%
CCOC(=O)c1c(NC(=O)CSc2nncs2)sc(C)c1C	-7%	x
O=C(COC(=O)c1ccccc1)NCC1COc2ccccc2O1 (stereo not given)	-11%	i
O=C(NNC1CC(=O)N(c2ccccc2)C1=O)c1ccc(COc2ccccc2Cl)o1 (stereo not given)	-5%	-26%
Cc1csc(NC(=O)CSc2nc3nc(C)cc(C)n3n2)n1	-17%	i
CN(C)/C=C/C(=O)c1ccc([N+](=O)[O-])c(CS(=O)(=O)c2ccc(Cl)cc2)c1	-17%	-17%
Cc1noc(C)c1CSc1nnc(-c2ccccc2)n1Cc1ccco1	-1%	-14%
Cc1ccc(CN2CCC(CNC(=O)Nc3ccc(C)c(C)c3)C2)cc1 (stereo not given)	-17%	-26%
Cc1[nH]c2ccccc2c1/C=C/c1ccnc2ccccc12	80%[activator]	-29%
O=C(Cn1cnc2c(nnn2Cc2ccccc2F)c1=O)NCC1CCCO1 (stereo not given)	-6%	-9%
CN1CCN(CC(=O)Nc2cc(N3CCOCC3)ccc2[N+](=O)[O-])CC1	-4%	i
O=C(OCc1nnc(-c2ccccc2)o1)c1ccc2ccccc2n1	-6%	-13%
COc1ccc(CCN2Cc3c(cccc3[N+](=O)[O-])C2=O)cc1OC	-16%	-8%
Cc1ccc(S(=O)(=O)N2CCN(c3nc(-c4cccs4)nc4cccnc34)CC2)cc1	-21%	-6%
CCCCN(CC)Cc1ccc(CNC(=S)Nc2cccc(F)c2)o1	-16%	-9%
CCC(=O)N1CCc2cc(Br)cc(S(=O)(=O)Nc3ccc(C)cc3C)c21	-7%	-10%
COCCNC(=O)[C@@]1(C)C=C[C@@H](Cc2ccccc2)N1C(=O)c1ccccc1	-5%	i
C=CC[C@@H](CC(=O)N(CCO)Cc1ccccc1)C(=O)N[C@@H](C)COC(=O)[C@@H](CC=C)Cc1ccc(F)cc1	-24%	u

> CSC1=C(C#N)C(c2ccncc2)C(C(=O)Nc2ccccc2)=C(C)N1 (stereo not given)
  VACV Venus inh: -12%; VACV mCherry inh: u

> Cc1ccc(NC(=O)CSc2nnc(CNC(=O)c3ccccc3F)o2)cc1Cl
  VACV Venus inh: -15%; VACV mCherry inh: i

> CCc1ccc(C(=O)CN2C(=O)NC(C)(CCc3ccccc3)C2=O)cc1 (stereo not given)
  VACV Venus inh: -19%; VACV mCherry inh: -10%

> COc1ccccc1NC(=O)[C@@H]1CCCN1S(=O)(=O)c1ccc(Cl)cc1
  VACV Venus inh: -5%; VACV mCherry inh: i

> O=C(c1noc2c1CCCCC2)N1CCN(c2cccc(C(F)(F)F)c2)CC1
  VACV Venus inh: -17%; VACV mCherry inh: -21%

> Cc1ccc(CNC(=O)N2CCN(S(=O)(=O)c3ccccc3)CC2)cc1
  VACV Venus inh: -5%; VACV mCherry inh: -16%

> COc1ccccc1CCC(=O)Oc1ccc(C#N)cc1OC
  VACV Venus inh: -10%; VACV mCherry inh: -15%

> O[C@H]1C[C@H](c2ccc(Cl)cc2)N(Cc2cccs2)C[C@@H]1n1cc(-c2ccc(F)cc2)nn1
  VACV Venus inh: -12%; VACV mCherry inh: i

> COc1ccc(-c2nc(CN(C)C(C)c3ccon3)c(C)o2)c(C)c1C (stereo not given)
  VACV Venus inh: -3%; VACV mCherry inh: -5%

> CCOc1ccc(NC(=O)c2oc3ccccc3c2NC(=O)c2cc(C)cc(C)c2)cc1
  VACV Venus inh: -6%; VACV mCherry inh: -2%

> CCC1=NN(C(=O)c2ccc([N+](=O)[O-])cc2)C(O)(c2ccccc2)C1 (stereo not given)
  VACV Venus inh: -12%; VACV mCherry inh: u

> O=C(CCC(=O)n1ncc2ccccc21)NCc1ccccc1Cl
  VACV Venus inh: -9%; VACV mCherry inh: -1%

> Cc1cc(NC(=S)NC(=O)C2CC2)ccc1Br
  VACV Venus inh: -12%; VACV mCherry inh: -10%

> O=C(/C=C/c1ccccc1)Nc1ccc(C(=O)N2CCCCC2)cc1
  VACV Venus inh: 0%; VACV mCherry inh: -12%

> COc1ccc(CN(C)Cc2nc3cc(OC)c(OC)cc3c(=O)[nH]2)c(OC)c1
  VACV Venus inh: -12%; VACV mCherry inh: 0%

> Cc1ccc(CNC(=O)c2oc3c(c2C)-c2nn(Cc4ccc(Cl)cc4)cc2CC3)cc1
  VACV Venus inh: u; VACV mCherry inh: -29%

> Cc1ccc(-n2cc(C(=O)O)c(=O)cc2C)c(C)c1
  VACV Venus inh: -7%; VACV mCherry inh: i

> Cc1nn(CC(=O)Nc2ccc(N3CCOCC3)cc2)c(C)c1Br
  VACV Venus inh: -21%; VACV mCherry inh: -25%

> Cc1cc(C)cc(C(=O)NCCn2cc(C(=O)N3CCSCC3)nn2)c1
  VACV Venus inh: -19%; VACV mCherry inh: -17%

> CCCCCCCCc1c(O)nc(-n2[nH]c(C)c(CCO)c2=O)[nH]c1=O
  VACV Venus inh: -8%; VACV mCherry inh: -3%

> Nc1nc(N)c2cc([N+](=O)[O-])ccc2n1
  VACV Venus inh: -26%; VACV mCherry inh: u

> COc1ccc(C[C@H]2CN3C(=NC[C@@H]3Cc3ccc(O)cc3)N2CCNC(=O)c2ccc(C)c(Br)c2)cc1
  VACV Venus inh: u; VACV mCherry inh: u

> CN(C)NC1CCS(=O)(=O)C1 (stereo not given)
  VACV Venus inh: -7%; VACV mCherry inh: i

> CCCc1nnc(NC(=O)Cn2c(=O)oc3ccccc32)s1
  VACV Venus inh: 2%; VACV mCherry inh: -10%

> COc1ccc(S(N)(=O)=O)cc1C(=O)NNC(=O)C1COc2ccccc2O1 (stereo not given)
  VACV Venus inh: -5%; VACV mCherry inh: -14%

> CC12/C(=N/O)C3C4CC5C3/C(=N/O)C1C5C42 (stereo not given)
  VACV Venus inh: 9%; VACV mCherry inh: 3%

> COc1cc(OC)cc(C(=O)NCCC(=O)NCCc2ccc(OC)c(OC)c2)c1
  VACV Venus inh: -9%; VACV mCherry inh: i

> O=C(COc1cc2oc(=O)c3c(c2cc1Cl)CCCC3)N1C[C@H]2C[C@@H](C1)c1cccc(=O)n1C2
  VACV Venus inh: -2%; VACV mCherry inh: -11%

> CC1(C(=O)Nc2cnc3ccccc3c2)CCN1Cc1ccc2ccccc2c1 (stereo not given)
  VACV Venus inh: u; VACV mCherry inh: -15%

Of the compounds above, 3 contain a cyano group.
> Cc1nc(NCc2ccco2)c(C#N)c2c1COC(C)(C)C2
  VACV Venus inh: 15%; VACV mCherry inh: 4%

> CSC1=C(C#N)C(c2ccncc2)C(C(=O)Nc2ccccc2)=C(C)N1 (stereo not given)
  VACV Venus inh: -12%; VACV mCherry inh: u

> COc1ccccc1CCC(=O)Oc1ccc(C#N)cc1OC
  VACV Venus inh: -10%; VACV mCherry inh: -15%
